Source: PubChem (several laboratories)
HSV augment – enhancers of HSV replication in host cells, fold increase, host cell viability; HSV replication augmentation in cells; maximum fold increase; 220,000 compounds, 0.005% hits;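 active = peak rise of 1.5-fold or more in the series; tested in PC3 cells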;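 also: first round at 10 µM; read as green reporter fluorescence; hits show the peak of a series up to 25 µM; 1 = signal of infected wells without compound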
PKD1 inh – inhibitors of human PKD1 kinase, biochemical, fluorescence polarization; Serine/threonine-protein kinase D1 (Homo sapiens), Q15139; PKD1 kinase fluorescence polarization assay; AID 797, 2007; 200,000 compounds, 0.056% hits; inhibition, %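 (about 10 µM by stock and volumes)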;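 active = inhibition of 50% or more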;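 also: controls were vehicle for no effect and a reference inhibitor for full effect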
Target sequence (Q15139 whole entry, looked up): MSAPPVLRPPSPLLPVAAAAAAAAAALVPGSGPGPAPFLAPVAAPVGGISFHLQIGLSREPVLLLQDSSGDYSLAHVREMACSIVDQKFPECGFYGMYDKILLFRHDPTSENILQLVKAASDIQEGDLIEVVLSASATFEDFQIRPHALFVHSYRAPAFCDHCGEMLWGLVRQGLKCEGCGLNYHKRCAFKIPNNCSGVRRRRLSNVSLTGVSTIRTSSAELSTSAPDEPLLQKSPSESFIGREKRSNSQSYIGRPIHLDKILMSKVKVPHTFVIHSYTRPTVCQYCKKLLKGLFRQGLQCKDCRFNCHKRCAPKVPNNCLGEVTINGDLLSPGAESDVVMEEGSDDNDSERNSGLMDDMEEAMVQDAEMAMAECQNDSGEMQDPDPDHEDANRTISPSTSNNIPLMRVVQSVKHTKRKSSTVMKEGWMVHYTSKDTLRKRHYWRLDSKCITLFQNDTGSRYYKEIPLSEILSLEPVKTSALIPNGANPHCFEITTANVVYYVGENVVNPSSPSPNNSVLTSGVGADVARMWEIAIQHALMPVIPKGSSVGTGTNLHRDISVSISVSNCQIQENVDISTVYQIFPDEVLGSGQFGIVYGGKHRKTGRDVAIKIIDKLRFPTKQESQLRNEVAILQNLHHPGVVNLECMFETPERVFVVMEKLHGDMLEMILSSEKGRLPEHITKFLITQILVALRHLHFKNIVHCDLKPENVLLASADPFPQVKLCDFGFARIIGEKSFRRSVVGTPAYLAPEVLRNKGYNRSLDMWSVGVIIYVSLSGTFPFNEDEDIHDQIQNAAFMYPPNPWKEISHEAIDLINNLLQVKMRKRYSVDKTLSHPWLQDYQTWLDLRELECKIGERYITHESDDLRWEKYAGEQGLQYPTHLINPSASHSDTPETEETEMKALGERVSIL
RGS16-Gao HTS – modulators of RGS16 binding to Galphao, primary screen, biochemical, human proteins, multiplexed bead flow cytometry; bead-based flow cytometry RGS16-Galphao binding, fluorescence; actives lie on both sides; binding response (% of control), % at 10 µM; 220,000 compounds, 0.38% hits;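 active = below 25% or above 175%, edge rows of some plates excepted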;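 also: Galphao activated by GDP with aluminum fluoride before binding; 100% = wells without compound and 0% = beads without RGS; some results beyond the cut were filed as inactive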
INS promoter inh – inhibitors of insulin promoter-driven GFP, primary screen, imaging, TRM-6 cells (human fetal islet line), eGFP reporter, cell count; 130,000 compounds, 0.9% hits; reporter expression induced with tamoxifen; inhibition, % at 2 µM; AID 1273, 2008;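 active = inhibition above the mean plus 3 SD, with well images judged a real hit on visual review, cut at about 60% in these data, passing the limit was not always enough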
GALR2 ag – GALR2 receptor agonists, primary screen, cell-based | Galanin receptor type 2 (Homo sapiens), O43603 | GALR2-expressing cells, agonist activation read-out | activation, %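 (tested at 5 µM)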 | 140,000 compounds, 0.48% hits;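 active = above mean plus 3 SD of all compounds, about 5% in these data, not always enough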;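 also: 0% = vehicle buffer wells and 100% = reference agonist at full effect; tested in CHO reporter cells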
INS promoter inh cell count – second read-out of INS promoter inh, no call of its own (marks repeat the call); normalized cell count, %; measured here: cell count, toxicity; reference of the scale not given here;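 cells exposed to compound for 48 h; stained nuclei by imaging scaled within each plate; lower means fewer cells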
HSV augment primary fold – second read-out of HSV augment, no call of its own (marks repeat the call); fold increase; compound at 10 µM; measured here: primary screen fold increase 10 uM; tested in PC3 cells;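 GFP signal in the first replicate; 1 = infected wells without compound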
Numbers without * were called inactive; i = inactive; nt = no result given.

SMILES | HSV augment | HSV augment primary fold | PKD1 inh | RGS16-Gao HTS | INS promoter inh | INS promoter inh cell count | GALR2 ag
NC(=O)c1c(NC(=O)COC(=O)CSc2nnc(-c3ccc(Cl)cc3)o2)sc2c1CCC2 | i | 0.94 | -4 | 88 | 9 | 147 | -0.8
CCCN(CCC)C(=O)CSc1nc2n[nH]c(C)c2c(=N)n1-c1ccc(OCC)cc1 | i | 0.73 | -5 | 106 | nt | nt | -1.7
CCOc1cccc(C(=O)Nc2ccc(N3CCN(S(C)(=O)=O)CC3)cc2)c1 | i | 0.89 | -11 | 115 | nt | nt | 0.0
CCC(C)c1ccccc1NC(=O)COC(=O)CCc1cc(OC)c(OC)c(OC)c1 (stereo not given) | i | 0.94 | -3 | 109 | 21 | 95 | -1.6
Cc1ccc(CSCCNC(=O)c2ccc(Cl)c(S(=O)(=O)N3CCOCC3)c2)cc1 | i | 0.93 | -7 | 104 | -142 | 85 | -1.0
COC(=O)CSc1nc(C)c(C)c(C)c1C(N)=O | i | 1 | -3 | 102 | nt | nt | nt
CSCCC(NC(=O)c1ccc(C(C)(C)C)cc1)C(=O)O (stereo not given) | i | 1.1 | -2 | 106 | -144 | 42 | nt
CC[n+]1c(/C=C/N(C)c2ccccc2)oc2ccccc21 | i | 1.2 | 3 | 110 | -156 | 142 | -3.0
CN(C)c1ccc(C(=O)c2ccc(O)cc2O)cc1 | i | 0.91 | 5 | 102 | -233 | 133 | -0.6
C=C(C)Cn1c(SCC(=O)O)nnc1-c1ccc(OC)cc1 | i | 0.93 | 4 | 102 | 3 | 63 | -1.1
N#C/C(=C/c1ccc(Sc2nc3ccccc3[nH]2)o1)c1ccccc1F | i | 0.93 | 9 | 100 | 31 | 105 | -0.1
CCN(C1CCCCC1)S(=O)(=O)c1cc(C)ccc1OC | i | 0.92 | -9 | 97 | -50 | 103 | -1.6
C/C(N)=C(/C#N)C(=O)COC(=O)c1ccccc1C(=O)c1ccc(C)cc1 | i | 0.85 | 0 | 94 | nt | nt | nt
COC(=O)CSc1nc(C2CC2)nc2ccccc12 | i | 0.98 | 2 | 105 | -66 | 124 | -0.6
CC(C)Oc1cccc(C(=O)NC(=S)Nc2ccccc2)c1 | i | 0.91 | -1 | 131 | 17 | 64 | -0.2
COc1ccc2c(C(F)(F)F)cc(=O)oc2c1C | i | 0.9 | -16 | 101 | 12 | 140 | -2.4
O=C(c1ccc2c(c1)C(=O)N(Cc1ccco1)C2O)N1CCOCC1 (stereo not given) | i | 1 | 10 | 97 | nt | nt | -0.6
N#CC1=C(N)Oc2cc3ccccc3cc2C1c1cccnc1 (stereo not given) | i | 0.97 | 8 | 102 | 16 | 58 | -1.3
Cc1nc2sc(C(c3cccs3)N3CCN(C(=O)c4ccco4)CC3)c(O)n2n1 (stereo not given) | i | 0.85 | 5 | 98 | nt | nt | -1.5
CC1=C(C(=O)OCCNC(=O)c2cccnc2)C(c2cccc([N+](=O)[O-])c2)C(C(=O)OCCN(C)C)=C(C)N1 (stereo not given) | i | 1 | 29 | 108 | -8 | 109 | -1.1
COc1ccc(C2(CNC(=O)c3cccc([N+](=O)[O-])c3)CCCCC2)cc1OC | i | 0.99 | -5 | 106 | 40 | 47 | -0.1
CCC1=NN(C(=O)c2ccc(Br)cc2)C(O)(c2ccccc2)C1 (stereo not given) | i | 0.8 | -7 | 102 | 46 | 85 | -0.9
Cc1nc2ccc(NC(=O)c3c(-c4ccccc4)noc3C)cc2s1 | i | 0.81 | 9 | 86 | nt | nt | -2.2
CCN(CC)C(=O)Cn1cc(C(=O)C(=O)NCCc2ccc(S(N)(=O)=O)cc2)c2ccccc21 | i | 0.66 | -2 | 101 | -106 | 210 | nt
CC(=O)C1=C(O)C(=O)N(CCc2c[nH]c3ccccc23)C1c1ccc(C)cc1 (stereo not given) | i | 1.1 | -1 | 100 | nt | nt | nt
CCOC(=O)c1cccc(NC(=O)COC)c1 | i | 0.79 | 3 | 100 | 22 | 86 | -0.9
CCOC(=O)c1ccccc1NC(=O)CSc1nc2ccccc2n1CC(=O)N1CCCC1 | i | 0.72 | 13 | 103 | nt | nt | -0.2
Cc1c(N/N=C(\C#N)C(=O)c2ccc(Cl)cc2)c(=O)n(-c2ccccc2)n1C | i | 1 | 62* | 105 | -73 | 66 | -1.8
CC(C)(C)c1ccc(S(=O)(=O)N(CCCN2CCOCC2)Cc2cccs2)cc1 | i | 1 | -4 | 123 | -39 | 106 | -0.2
COc1cccc(C2c3[nH]c4ccccc4c3CCN2Cc2cnc(C)s2)c1OC (stereo not given) | i | 1.2 | -2 | 109 | nt | nt | nt
CCCS(=O)(=O)c1ccc(COC(=O)c2cccc(NC(=O)C(C)C)c2)cc1 | i | 0.97 | 2 | 101 | nt | nt | nt
CC(=O)Nc1ccc2c(c1)CCCN2C(=O)c1ccccc1 | i | 1 | -1 | 102 | -52 | 94 | -1.4
Cc1cccc(CCNS(=O)(=O)c2cnc[nH]2)c1 | i | 1.1 | 0 | 102 | nt | nt | -1.2
COC(=O)CNC(=O)C12CC3(C)CC(C)(CC(C)(C3)C1)C2 | i | 0.92 | -5 | 101 | 0 | 162 | -1.8
CNC(=S)N/N=C/c1ccc(N(C)C)cc1 | i | 0.87 | nt | 103 | nt | nt | nt
COc1ccccc1-c1cc(C(=O)NCc2ccc(F)cc2)no1 | i | 0.93 | 7 | 99 | nt | nt | -0.7
CCC(C)[C@@H](NC(=O)OC(C)(C)C)c1nnc(S(=O)(=O)Cc2cccc(C)c2)o1 (stereo not given in full) | i | 0.87 | 0 | 93 | 7 | 51 | 0.3
CCN(C(=O)COC(=O)c1ccc(COc2ccc3c(C)cc(=O)oc3c2)cc1)C1CCS(=O)(=O)C1 (stereo not given) | i | 0.89 | 4 | 101 | 0 | 175 | nt
CCCCc1nnc(NC(=O)CSc2nc(O)c(Cc3ccccc3)c(=O)[nH]2)s1 | i | 1 | 1 | 106 | 36 | 99 | nt
CC(C)(C)n1nnnc1C(c1ccc(C#N)cc1)N1CCCC2(CCCCC2)C1 (stereo not given) | i | 0.92 | 3 | 100 | 14 | 55 | -1.0
CCNC(=O)CC1C(=O)N(CC)C(=S)N1NC(=O)c1cccnc1 (stereo not given) | i | 0.97 | 3 | 88 | -13 | 103 | nt
Cc1cc(S(=O)(=O)NC(C)C)ccc1OCC(=O)N1CCOCC1 | i | 0.95 | 2 | 107 | nt | nt | -1.8
CCOC(=O)Nc1sc(C)c(C)c1C(N)=O | i | 1.1 | 2 | 98 | nt | nt | 0.2
COc1cc2c(cc1OC)-c1cc(NCc3ccccn3)nc(=O)n1CC2 | i | 0.97 | 1 | 104 | nt | nt | -1.0
CC(C)OC(=O)CSc1nnc(SCc2cccc3ccccc23)s1 | i | 0.99 | -6 | 115 | 27 | 64 | -1.5
CCC(=O)c1ccc(OCC(O)Cn2nnc3ccccc32)cc1 (stereo not given) | i | 1.1 | 8 | 100 | 24 | 70 | nt
O=C(NC1CCCC1)C(c1ccccc1F)N(C(=O)Cc1cccs1)c1ccc2c(c1)OCCO2 (stereo not given) | i | 0.98 | -10 | 103 | -55 | 130 | -0.6
CN(Cc1ccccc1)S(=O)(=O)c1ccc(OCC(=O)Nc2cccc([N+](=O)[O-])c2)cc1 | i | 1 | 4 | 102 | nt | nt | -1.1
CCc1ccc(C2=Nn3c(nnc3-c3cccs3)SC2)cc1 | i | 0.72 | -1 | 100 | 33 | 83 | -1.6
Cc1cc(C)c2c(c1)/C(=N/NS(=O)(=O)c1ccccc1)CCC2 | i | 0.69 | -8 | 97 | 21 | 106 | -2.4
CC(=O)Nc1ccc(S(=O)(=O)N(C)c2ccc(OCC(=O)OCC(=O)NCc3ccco3)cc2)cc1 | i | 0.94 | nt | 99 | nt | nt | nt
CCN(CCO)c1nc(SC)nc2c1sc1nc(-c3ccco3)c3c(c12)CCC3 | i | 1.4 | 9 | 89 | 10 | 59 | -1.9
CC(=O)SC(C)CC(=O)NCc1ccccc1 (stereo not given) | i | 1 | -6 | 143 | 39 | 55 | -2.7
Cc1cccc(CC2S/C(=N/N=C/c3ccco3)NC2=O)c1 (stereo not given) | i | 0.95 | -3 | 108 | -56 | 84 | nt
COc1ccccc1NC(=O)Cn1nnc(-c2ccccc2NC(=O)c2cc3ccccc3oc2=O)n1 | i | 0.77 | -7 | 117 | nt | nt | -1.3
O=C(O)CCCCCn1c(SCC(=O)Nc2ccc(F)cc2)nc2ccsc2c1=O | i | 0.9 | 1 | 86 | 30 | 117 | nt
CSc1nc2ccccc2c(=O)n1Cc1ccc(F)cc1 | i | 0.86 | 7 | 95 | nt | nt | nt
Cc1cc(C)n2nc(-c3ccsc3-n3c(C)ccc3C)cc2n1 | i | 1.1 | 5 | 91 | -90 | 97 | -2.1
CC(C)CCNC(=S)Nc1ccc(Br)cc1 | i | 0.99 | 0 | 106 | 0 | 134 | -2.0
Cc1cc(C(=O)N/N=C/C=C/c2ccc([N+](=O)[O-])cc2)n[nH]1 | i | 0.87 | -3 | 106 | nt | nt | nt

Eleven structures already listed, sorted by molecular weight, descending:
SMILES | HSV augment | HSV augment primary fold | PKD1 inh | RGS16-Gao HTS | INS promoter inh | INS promoter inh cell count | GALR2 ag
O=C(NC1CCCC1)C(c1ccccc1F)N(C(=O)Cc1cccs1)c1ccc2c(c1)OCCO2 (stereo not given) | i | 0.98 | -10 | 103 | -55 | 130 | -0.6
CCN(CCO)c1nc(SC)nc2c1sc1nc(-c3ccco3)c3c(c12)CCC3 | i | 1.4 | 9 | 89 | 10 | 59 | -1.9
COc1cc2c(cc1OC)-c1cc(NCc3ccccn3)nc(=O)n1CC2 | i | 0.97 | 1 | 104 | nt | nt | -1.0
Cc1cc(S(=O)(=O)NC(C)C)ccc1OCC(=O)N1CCOCC1 | i | 0.95 | 2 | 107 | nt | nt | -1.8
CCNC(=O)CC1C(=O)N(CC)C(=S)N1NC(=O)c1cccnc1 (stereo not given) | i | 0.97 | 3 | 88 | -13 | 103 | nt
CCc1ccc(C2=Nn3c(nnc3-c3cccs3)SC2)cc1 | i | 0.72 | -1 | 100 | 33 | 83 | -1.6
CCC(=O)c1ccc(OCC(O)Cn2nnc3ccccc32)cc1 (stereo not given) | i | 1.1 | 8 | 100 | 24 | 70 | nt
Cc1cc(C)n2nc(-c3ccsc3-n3c(C)ccc3C)cc2n1 | i | 1.1 | 5 | 91 | -90 | 97 | -2.1
Cc1cccc(CC2S/C(=N/N=C/c3ccco3)NC2=O)c1 (stereo not given) | i | 0.95 | -3 | 108 | -56 | 84 | nt
CSc1nc2ccccc2c(=O)n1Cc1ccc(F)cc1 | i | 0.86 | 7 | 95 | nt | nt | nt
Cc1cc(C(=O)N/N=C/C=C/c2ccc([N+](=O)[O-])cc2)n[nH]1 | i | 0.87 | -3 | 106 | nt | nt | nt

Retrieved by compound from the list above:
SMILES | HSV augment | HSV augment primary fold | PKD1 inh | RGS16-Gao HTS | INS promoter inh | INS promoter inh cell count | GALR2 ag
COc1cc2c(cc1OC)-c1cc(NCc3ccccn3)nc(=O)n1CC2 | i | 0.97 | 1 | 104 | nt | nt | -1.0
CCNC(=O)CC1C(=O)N(CC)C(=S)N1NC(=O)c1cccnc1 (stereo not given) | i | 0.97 | 3 | 88 | -13 | 103 | nt

Later entries.
SMILES | HSV augment | HSV augment primary fold | PKD1 inh | RGS16-Gao HTS | INS promoter inh | INS promoter inh cell count | GALR2 ag
CCCCCn1c(N2CCOCC2)nc2c1c(=O)n(CC(N)=O)c(=O)n2C | i | 0.97 | 7 | 97 | 46 | 94 | -0.1
COc1ccc(C2C(C(=O)O)c3ccccc3C(=O)N2C)cc1Br (stereo not given) | i | 0.96 | -13 | 102 | -37 | 147 | -0.7
O=C(/C=C/c1ccccc1)C1C(=O)c2ccccc2C1=O | i | 1 | 11 | 99 | nt | nt | -0.8
O=C(NC(=S)Nc1ccc(CN2CCOCC2)cc1)c1cc2ccccc2o1 | i | 0.9 | -3 | 107 | nt | nt | nt
c1ccc2sc(Nc3nc4cc5c(cc4s3)OCO5)nc2c1 | i | 0.87 | 3 | 60 | 4 | 87 | 3.8
CC(C)(C)c1ccc(OCC(=O)Nc2ccc(-c3nc4cccnc4o3)cc2)cc1 | i | 1 | -6 | 104 | 22 | 72 | 0.6
C/C(Cl)=C\Cn1c(NCCc2ccccc2)nc2c1c(=O)n(C)c(=O)n2C | i | 0.82 | 5 | 102 | nt | nt | 0.1
Cc1ccc(CN2CCN(Cc3ccc4c(c3)OCCO4)CC2CCO)cc1 (stereo not given) | i | 1 | 6 | 99 | nt | nt | nt
